TRPV1 potentiator = enhances activation of the human vanilloid receptor TRPV1; Q8NER1; TRPV1-expressing cells, Fluo-8 calcium influx, capsaicin EC20 potentiation; host cell line not named in the record; control for the full effect not named in the record; potentiation, % at 8.33 µM; actives 0.02% (n = 320,000); AID 540277; active means potentiation above 80%; inconclusive means 30% to 80%; inactive means below 30%; also: 0% is about no effect
Target sequence (Q8NER1 whole entry, looked up): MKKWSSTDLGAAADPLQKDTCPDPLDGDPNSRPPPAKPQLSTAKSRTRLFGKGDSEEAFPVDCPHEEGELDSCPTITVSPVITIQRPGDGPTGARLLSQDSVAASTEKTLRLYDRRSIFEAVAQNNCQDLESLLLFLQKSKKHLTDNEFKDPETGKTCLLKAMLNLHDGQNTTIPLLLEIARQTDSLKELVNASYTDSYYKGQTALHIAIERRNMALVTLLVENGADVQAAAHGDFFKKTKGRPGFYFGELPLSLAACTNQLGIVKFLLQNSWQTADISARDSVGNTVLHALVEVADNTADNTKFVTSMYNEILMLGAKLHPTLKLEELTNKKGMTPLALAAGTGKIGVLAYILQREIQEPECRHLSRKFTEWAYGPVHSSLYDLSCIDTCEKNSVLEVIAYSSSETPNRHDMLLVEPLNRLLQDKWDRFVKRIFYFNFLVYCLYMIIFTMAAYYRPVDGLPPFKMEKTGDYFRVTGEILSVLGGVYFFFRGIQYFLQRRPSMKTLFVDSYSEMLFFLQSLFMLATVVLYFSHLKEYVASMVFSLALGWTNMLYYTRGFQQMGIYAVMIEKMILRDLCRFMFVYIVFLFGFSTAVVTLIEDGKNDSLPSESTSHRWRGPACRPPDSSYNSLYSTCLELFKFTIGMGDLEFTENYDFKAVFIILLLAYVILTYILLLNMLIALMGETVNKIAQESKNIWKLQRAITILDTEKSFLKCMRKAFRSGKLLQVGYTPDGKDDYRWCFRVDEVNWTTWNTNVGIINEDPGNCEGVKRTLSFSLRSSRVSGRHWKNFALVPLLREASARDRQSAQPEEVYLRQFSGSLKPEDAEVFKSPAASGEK
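Cells expressing TRPV1 were dye-loaded with Fluo-8 and read kinetically: 10 s baseline, 3 min after compound (agonist portion), then 2 min after EC20 capsaicin (allosteric enhancer portion). Calcium-bound dye fluorescence at 480/520 nm.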
TRPML1 agonist = agonists of human TRPML1 channel; Q9GZU1; TRPML1-expressing cells, Ca2+ dye fluorescence, FDSS; host cell line not named in the record; reference of the full effect not given here; activation, % (test concentration not listed); actives 0.12% (n = 410,000); AID 624414; in the data active = activation above about 50%; inconclusive = about 30% to 50%; inactive = below about 30%; also: 0% is about no effect; the text of the record puts the active cut at 80%
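Calcium fluorescence on an FDSS kinetic reader gave the read-out. Tet-induced TRPML1-DL cells were plated overnight, dye-loaded (Ca8 with quencher, 45-90 min, room temperature, dark), then read 110 s after compound addition, and again 110 s after 4uM final 54-4 (EC80).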
Sfp PPTase inh = blocks B. subtilis Sfp PPTase activity. Potency, µM, for inactives: max response, negative = inhibition, usual class: inhibitors. actives 3.5% (n = 310,000). Biochemical Sfp PPTase activity, qHTS. Q9F4F7; active = well fitted inhibition curve with a large enough effect; inconclusive = small, poorly fitted or top-dose-only effect, or another doubt; inactive = no such curve, though single readings can be large or run the other way;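 also: the enzyme is Sfp with the accession as filed and its product quenches rhodamine fluorescence; potency is read from the fitted curve at half-maximal effect; 0% = enzyme reaction without inhibitor and -100% = no enzyme wells; top concentration of the series not given in the record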
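With Hepes-Na pH 7.6 buffer containing 10 mM MgCl2, Sfp (15 nM) modified BHQ-2-YbbR (12.5 uM) using rhodamine-CoA (5 uM). Two reads 30 minutes apart at 525/598 nm yielded each well's rate.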
TRPML1 inh = blocks the human TRPML1 channel; activity change, negative = inhibition, % (concentration not given with the values); actives 0.02% (n = 390,000); Q9GZU1; TRPML1-inducible cells, Ca2+ dye fluorescence, FDSS; stronger effect = lower value; inhibition of EC80 agonist-evoked calcium signal; AID 624415; in the data active means activity change below about -50%; inconclusive means about -30% to -50%; inactive means above about -30%;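 also: stimulus is agonist 54-4 at its EC80 concentration; % is scaled to controls: 0 for no effect and ±100 for the full control effect; compound concentration not given in the record; the text of the record puts the active cut at -80%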
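Tet-induced TRPML1-DL cells loaded with Ca8 no-wash calcium dye were read kinetically on FDSS. Compound addition was followed by EC80 agonist 54-4 (4 uM final); inhibition was read over 110 s.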
ClpP mod = qHTS Assay for Activators of ClpP; ATP-dependent Clp protease proteolytic subunit (Bacillus subtilis (strain 168)), P80244; purified B. subtilis ClpP, FRET peptide cleavage, 20 min; Potency, µM (series often up to 57.5 µM), without a hit: top-dose activity change, negative = active; actives 1.9% (n = 340,000); AID 651965, 2013; active = well fitted falling curve with a large enough effect; inconclusive = small, poorly fitted or top-dose-only effect; inactive = no such curve, though single readings can be large or run the other way; also: potency is read from the fitted curve at half-maximal effect; the source files actives as falling curves though it sought activators and does not explain the sign; nearly all actives have a fitted effect of over 65% in size; many hits overshoot -100%
Target sequence (P80244 whole entry, looked up): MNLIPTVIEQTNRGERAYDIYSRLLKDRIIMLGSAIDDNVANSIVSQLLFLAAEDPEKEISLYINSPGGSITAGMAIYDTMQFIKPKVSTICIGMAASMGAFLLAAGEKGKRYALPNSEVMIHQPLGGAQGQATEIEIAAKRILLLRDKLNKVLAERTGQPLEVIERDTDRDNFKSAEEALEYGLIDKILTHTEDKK
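Buffer: 100 mM Tris/HCl pH8, 100 mM KCl, 0.05% low protease BSA, 2.5% glycerol, 0.01% Tween-20. ClpP 10 microg/mL final; 20 min RT; delta FRET normalized to ADEP and DMSO controls.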
PINK1 modulator = changes PINK1 expression; Potency, µM (doses to about 76.6 µM), for the others: at the highest dose activation (PINK1 increase), actives largely listed as activators; PINK1 immunofluorescence, high-content cytometry, 24 h; actives 0.2% (n = 410,000); active = well fitted activation curve with a large enough effect; inconclusive = small, poorly fitted or top-dose-only effect; inactive = flat fitted curve, though single readings scatter; cell line not stated here;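 also: potency is read from the fitted curve at half-maximal effect; % of control where 0% means no effect; nearly all actives have a fitted effect of over 65% in size; a mitochondrial uncoupler was the plate control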
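Cells are seeded, rested 12 hours, then given compound at five concentrations or DMSO for 24 hours. After fixation, blocking and antibody staining, PINK1 amount and mitochondrial localization are scored; CCCP serves as control.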
Menin MLL FP FL = inhibitors of human menin-MLL interaction, wild-type MLL peptide; Fluorescence polarization, fluorescein-MLL peptide displacement from menin; FP activity change, % at 61.4 µM; 290,000 tested, under 10 active; AID 1766; inconclusive = falling polarisation curve, or a change in total fluorescence; inactive = total fluorescence flat and polarisation flat or rising; no compound was filed as active; the % refers to the polarisation; negative = inhibition;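 also: % of control where 0% means no effect; inhibitors lower the polarisation; unlabelled MLL peptide was the positive control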
* marks the source's active call; other numbers are inactive results; ? = inconclusive; / = no result given; & = joins results of further samples; [ ] = remark or other dose.

Screens in order: TRPV1 potentiator, TRPML1 agonist, Sfp PPTase inh, TRPML1 inh, ClpP mod, PINK1 modulator, Menin MLL FP FL
1. Cc1ccccc1CNc1ncnc2cc(Cl)ccc12
  22, -0.7, 1%, 11, 0.4%, 7.0%, 2.4
2. CC(NC(=O)CCCc1c[nH]c2ccccc12)c1ccc(F)cc1 (centres undefined)
  4, 0.0, -13%, 11, /, 2.5%, -1.4
3. Fc1ccc(N/N=C/c2ccc(N3CCOCC3)cc2)c(F)c1
  -7, -1.0, 4%, -4, 35µM*, 2.2%, -3.6
4. COc1ccc(CSc2nnc(C)n2N)cc1
  -3, 1.0, 11%, -5, 2.4%, -1.6%, 5.5
5. CCOc1ccc(/C=N/NC(=O)CSc2ccccn2)cc1O
  10, -0.4, 4%, -1, -15%, 0.3%, 1.7
6. CC(C)(C)NC(=O)c1ccc2c(c1)N(CC(=O)N1CCCC1)C(=O)C(C)(C)O2
  -7, 0.8, 14%, 19, -2.1%, 3.0%, -5.4
7. Cc1ccc(-n2nc(C)c(/C=N/n3c(C)n[nH]c3=S)c2Cl)cc1
  -2, 0.2, 6%, 4, /, -0.4%, -0.8
8. CC1(C)Cc2c(sc(/N=C/N3CCCC3)c2C#N)C(C)(C)N1
  2, -0.1, -2%, 35, 1.6%, -1.1%, -1.0
9. Cc1cccc(N2CCN(C(=O)C3CCN(c4ncnc5c4nc4n5CCCCC4)CC3)CC2)c1C
  8, 1.2&3.1, -1%, 32&21, -1.3%&-3.1%, 5.2%&-3.5%, /
10. COc1ccc(CNS(=O)(=O)c2cc(-c3cc(C)no3)ccc2C(C)C)cc1
  -19, 3.6, 7%, 19, 0.5%, 13%, 2.3
11. Cc1ccc(-c2c(C(=O)N3CCN(c4ccc(F)cc4)CC3)oc(=O)c3ccccc23)cc1
  /, -1.0, /, -11, 0.6%, 0.5%, /
12. CCC(C)NS(=O)(=O)c1ccc(OCC(=O)NCc2ccccn2)cc1 (centres undefined)
  -3, 1.1, 2%, 32, /, -0.7%, -3.4
13. COc1ccc(NC(=O)C2CCCN(c3nc(C)cc(C)n3)C2)cc1 (centres undefined)
  -12, 1.6, 7%, -5, -1.6%, 6.6%, 0.1
14. CCCCCCn1c(N2CCN(c3ccccc3)CC2)nc2c1c(=O)[nH]c(=O)n2C
  ?, 0.7, ?, 79, -2.6%, -0.7%, 4.6
15. CN(C1CCS(=O)(=O)C1)S(=O)(=O)c1ccccc1[N+](=O)[O-] (centres undefined)
  4, 0.5, 25%, -8, /, 0.2%, 10
16. O=C(COc1ccc2ccccc2c1)NNC(=O)Cc1ccccc1
  -23, 1.4, 12%, -4, -6.2%, -1.1%, -1.7
17. CCOc1ccc(NC(=O)c2c(NC(=O)Cc3ccccc3)sc3c2CCCC3)cc1
  /, -0.3, /, -5, -28%, 6.6%, /
18. COCCNC(=O)c1ccc(Cn2c(SCC(=O)NC(C)C)nc3ccccc3c2=O)cc1
  /, 1.5, /, 4, -2.5%, -2.5%, /
19. CCCNC(=O)C1CC(c2ccccc2[N+](=O)[O-])=NO1 (centres undefined)
  /, -0.1, /, 8, -4.1%, -0.4%, /
20. Cc1ncc(NS(=O)(=O)c2ccc(N)cc2)nc1C
  /, 0.0, /, 3, -0.4%, -0.6%, /
21. CCCN(CC(=O)Nc1ccccc1C)C(=O)c1cc(=O)[nH]c2ccccc12
  8, 1.0, 11%, -6, /, -1.1%, -0.8
22. CC(C)Oc1ccc(F)cc1-c1cc(C(=O)NC2CCCCC2)[nH]n1
  /, 0.2, /, /, -25%, 0.4%, /
23. Cc1ccc(NC(=O)/C(CN(C)C)=N\O)cc1
  -8, 0.2, 3%, -4, 0.5%, -0.2%, 1.5
24. CC(=O)Nc1ccc(-c2csc(NC(=O)Nc3ccccc3)n2)cc1
  24, 1.3, -18%, -11, -14%, -2.3%, 0.8
25. Cc1cccc(NC2(C(F)(F)F)N=C3SCCN3C2=O)n1 (centres undefined)
  6, -0.3, -1%, 4, 1.7%, 0.0%[38.3 µM], 1.7
26. O=C1C(C23CC4CC(CC(C4)C2)C3)C(=O)N(c2ccccc2)N1c1ccccc1
  3, 1.5, 13%, 11, -1.0%, 0.0%[38.3 µM], 4.3
27. COc1cc2c(cc1OC)CN(C(=O)CCN1C(=O)C3CCCCC3C1=O)CC2 (centres undefined)
  -2, 0.7, 14%, -5, /, -1.4%, -3.5
28. COc1ccc(C[C@H]2CN3C(=NC[C@@H]3Cc3ccccc3)N2CCNC(=O)c2ccc(C)c(Br)c2)cc1
  -3, -0.5, 32µM*, 0, 0.2%, -0.2%, -5.5
29. O=C(NCc1ccco1)c1ccc(COc2ccccc2[N+](=O)[O-])o1
  -6, -0.2, 14%, -8, -0.4%, -0.5%, /
30. Cc1cc(NC(=O)CSc2nnnn2-c2ccccc2C)no1
  6, 0.4, 4%, 14, -1.4%, -0.8%, /
31. CN(C(=O)Cn1cc(S(=O)(=O)Cc2ccccc2Cl)c2ccccc21)c1ccccc1
  /, 0.4, /, 17, 0.8%, 0.3%, /
32. COc1ccc(-n2nc(C(=O)NCC(=O)NCc3ccccc3OC)c3ccccc3c2=O)c(OC)c1
  10, -0.6, 8%, -11, /, 1.0%, 3.3
33. Cc1ccc(NC(=O)Cn2cc(S(=O)(=O)c3ccc(C)cc3)c(=O)c3cc4c(cc32)OCO4)cc1
  /, 1.5, /, 17, -11%, -0.4%, /
34. Cc1ccc(C)c(C(=O)NC(C)c2ccc(-n3ccnc3)cc2)c1 (centres undefined)
  -1, -0.2, 17%, 1, 0.9%, 3.2%, /
35. Cc1ccc(C)c(S(=O)(=O)/N=C(/Nc2ccccc2)c2ccccc2)c1
  /, 0.6, /, 7, /, 2.4%, /
36. COC(=O)c1ccc(/C=C/c2nc3ccccc3c(=O)[nH]2)cc1
  -14, 0.5, 1%, 3, /, -0.5%, 1.1
37. Cc1ccc(C2N(c3ccccc3)C(=S)N3CCCN23)cc1 (centres undefined)
  2, 0.6, 11%, -2, -3.2%, 0.9%, 1.4
38. CN1/C(=C\C(=O)c2ccccc2Cl)c2ccccc2CC1(C)C
  -7, 1.0, -20%, -27, -5.7%, -0.5%, -0.2
39. COc1ccc(NC(=O)CSc2nnc(-c3ccccc3C)n2C)cc1
  6, -0.8, 5%, -11, -0.4%, -26%[38.3 µM], -1.6
40. COc1cc(-c2cc(C(=O)NCc3ccc(S(N)(=O)=O)cc3)c3ccccc3n2)cc(OC)c1OC
  24, 2.3, 6%, 8, /, 0.5%, -1.1
41. Cc1oc(C2CC2)cc1C(=O)O
  6, 0.2, 9%, -2, 0.4%, 4.6%[38.3 µM], 2.9
42. Brc1ccc(-c2noc(C3CCCCC3)n2)cc1
  19, -0.4, 7%, -11, /, 16%, -3.2
43. Cc1ccc(-c2noc(C3CCCN(C(=O)c4ccccc4Br)C3)n2)cc1 (centres undefined)
  5, 1.5, -18%, 30, -0.7%, -1.5%, -0.5
44. CN(C)CCNC(=O)c1ccc(Cn2c(SCc3ccc(F)cc3)nc3cccnc32)cc1
  /, -1.0, /, 87, 4.4%, -0.4%, /
45. CCOC(=O)c1[nH]c2ccccc2c1CCCN1C(=O)c2ccccc2C1=O
  -8, 2.1, -3%, 36, -1.7%, -0.7%, 1.0
46. OC1(c2ccc(Cl)cc2)CN(c2ccccc2)C2=[N+]1CCS2 (centres undefined)
  6, -1.0, ?, 15, /, 4.7%, -5.4
47. CC(C(=O)NCc1ccccc1)N(CCN1CCOCC1)C(=O)c1snc(C(N)=O)c1N (centres undefined)
  6, /, -5%, /, /, /, -0.7
48. Cc1nn(CCO)c(C)c1Oc1ccccc1O
  -6, -0.1, 9%, 4, 2.0%, 0.4%, 0.8
49. Cc1cccn2c(=O)c3cc(C(=O)O)n(C)c3nc12
  -2, -0.4, -3%, 28, 32µM*, -1.9%, -0.1
50. Cc1ccc(C)n1-c1ccc(C(=O)Nc2ccccc2)cc1
  3, 0.1, 3%, -8, -3.0%, 5.0%, 4.6
51. Cc1c(C(=O)N2CCN(C3CCS(=O)(=O)C3)CC2)oc2c(F)cccc12 (centres undefined)
  23, -0.6, /, -17, 0.7%, -0.4%, /
52. CCn1c(C)c(C)c2cc(C(=O)NCc3ccc(OC)cc3OC)ccc21
  /, 2.1, /, -18, -6.4%, -0.7%, /
53. COc1ccc(CNC(=O)N[C@H](C(=O)O)C(C)C)cc1OC
  -2, 1.1, 24%, 4, -1.1%, 0.4%, 0.6
54. O=C(COC(=O)c1ccc([N+](=O)[O-])s1)Nc1ncc(C(F)(F)F)cc1Cl
  -2, 0.4, ?, 25, -5.0%, 7.8%, 22
55. CCOc1ccccc1C(=O)Nc1cc2c(cc1C)n(C)c(=O)c(=O)n2C
  /, 0.5, /, 14, -0.7%, -0.5%, /
56. O=C(NCC1COc2ccccc2O1)c1ccc(-n2cncn2)c([N+](=O)[O-])c1 (centres undefined)
  -5, -0.3, /, 16, -4.0%, -1.4%, /
57. CCN(CC)S(=O)(=O)c1ccc(C2CNC(=O)C2)cc1 (centres undefined)
  10, -0.3, 15%, -3, 1.8%, 1.4%, -0.7
58. CCCCCCCCN1C(=O)[C@H](CC(=O)NCc2ccc(OC)c(OC)c2)C[C@@]2(C(=O)OC)CCCCC=C12
  /, -0.7, /, /, 3.5%, 11%, /
59. CCN(c1ccccc1)S(=O)(=O)c1ccc(Oc2ccccc2)c(N)c1
  /, 2.4, /, 20, /, 4.3%, /
60. O=C(Cc1cccc2ccccc12)NCC(=O)N1CCN(CC(=O)Nc2ccc(F)cc2)CC1
  /, -0.6, /, -2, 0.5%, 1.2%, /

From PubChem

This is a random part of the collection. About 4.4% of those tested had a hit in this group.
